# Screens (PubChem BioAssay)
# Marburg entry inh: qHTS for inhibitors of binding or entry into cells for Marburg Virus; Marburg virus pseudotyped entry inhibition, cell reporter; control for the full effect not named in the record; about a third of the inactives were read at about 46 µM; AID 540276, 2011; 300,000 compounds, 1.8% hits; Potency, µM (titrated, usually from 37.8 µM), for the others: top-dose activity change, negative = inhibition, most hits filed as inhibitors; active = well fitted inhibition curve with a large enough effect; inconclusive = small, poorly fitted or top-dose-only effect, or effect the other way; inactive = flat fitted curve, though single readings scatter; tested in HEK293 cells; about a fifth of its hits are not listed in these tables; also: % is scaled to controls: 0 for no effect and ±100 for the full control effect; luciferase read-out
# NS1 function inh: qHTS Assay for Inhibitors of Influenza NS1 Protein Function; 270,000 compounds, 0.4% hits; Potency, µM (highest dose often 46.1 µM), for inactives: top-dose activity, positive = more growth; S. cerevisiae slowed by influenza A NS1, growth recovery by OD600; also: actives are rising curves; nearly all actives have a fitted effect of over 50% in size
#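 Recovery from NS1-induced slow growth read by OD600 in budding yeast switched to galactose assay medium (pH 6.0, -URA) at 1:100 dilution. Compound 23 nl per well; the matching strain lacking NS1 serves as control.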
# SARS PLpro yeast: qHTS of Yeast-based Assay for SARS-CoV PLP | S. cerevisiae expressing SARS-CoV PLpro, growth rescue; control for the full effect not named in the record | 330,000 compounds, 0.19% hits | Potency, µM (highest dose often 32.9 µM), for inactives: top-dose activity, positive = growth rescue | AID 485353, 2010; also: 0% is about no effect; nearly all actives have a fitted effect of over 55% in size; growth read by luminescence after 48 h
# Cruzain noTriton: qHTS Assay for Promiscuous and Specific Inhibitors of Cruzain (without detergent) | purified cruzain, Z-FR-AMC fluorescence, no detergent | Potency, µM, for the others: max response, negative = inhibition, hits mostly inhibitors | 200,000 compounds, 2.3% hits; active = well fitted curve in the direction sought with a large enough effect; inconclusive = small, poorly fitted or top-dose-only effect, or another doubt; inactive = no such curve, though single readings can be large; an effect the other way counts as inactive or inconclusive;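 also: plate controls were enzyme without inhibitor for no effect and buffer without enzyme for full effect; nearly all actives have a fitted effect of over 40% in size; top concentration of the series not given in the record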
# Target sequence (P25779 123-467 limits assumed): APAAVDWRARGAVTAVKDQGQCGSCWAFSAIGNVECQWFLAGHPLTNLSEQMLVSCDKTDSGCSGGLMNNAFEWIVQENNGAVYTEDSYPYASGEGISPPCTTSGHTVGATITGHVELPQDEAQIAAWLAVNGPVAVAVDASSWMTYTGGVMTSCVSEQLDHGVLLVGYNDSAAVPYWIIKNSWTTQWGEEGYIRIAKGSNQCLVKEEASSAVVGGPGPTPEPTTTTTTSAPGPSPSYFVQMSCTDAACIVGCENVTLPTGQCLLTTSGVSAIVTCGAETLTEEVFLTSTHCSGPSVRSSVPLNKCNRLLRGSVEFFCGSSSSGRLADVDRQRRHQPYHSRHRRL
#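 Detergent-free condition (0.00005% Triton X-100) in acetate buffer pH 5.5 with DTT. 1.5 nM enzyme and compound were pre-mixed 15 min, then 2 uM Z-FR-AMC substrate added; reaction progress from fluorescence change between first and third reads (60 s).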
# Cruzain Triton: qHTS Assay for Promiscuous and Specific Inhibitors of Cruzain (with detergent). Potency, µM, for inactives: max response, negative = inhibition, hits mostly inhibitors. Cruzipain (Trypanosoma cruzi), P25779. purified cruzain, Z-FR-AMC fluorescence, 0.01% Triton. 200,000 compounds, 0.43% hits; active = well fitted curve in the direction sought with a large enough effect; inconclusive = small, poorly fitted or top-dose-only effect, or another doubt; inactive = no such curve, though single readings can be large; an effect the other way counts as inactive or inconclusive;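 also: plate controls were neutral wells for no effect and buffer without enzyme for full effect; nearly all actives have a fitted effect of over 40% in size; top concentration of the series not given in the record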
#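 Cysteine protease activity tested under reducing, mildly acidic conditions (100 mM sodium acetate pH 5.5, 5 mM DTT) plus 0.01% Triton X-100. Cruzain 1.5 nM; substrate Z-FR-AMC 2 uM; 15 min compound preincubation at room temperature.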
# Lassa entry inh: qHTS for Inhibitors of binding or entry into cells for Lassa Virus | Lassa virus pseudotype entry inhibition, cell reporter; control for the full effect not named in the record | Potency, µM (series often up to 37.9 µM), without a hit: top-dose activity change, negative = inhibition, most hits filed as inhibitors | 300,000 compounds, 1.2% hits | AID 540256, 2011; active means well fitted inhibition curve with a large enough effect; inconclusive means small, poorly fitted or top-dose-only effect, or effect the other way; inactive means flat fitted curve, though single readings scatter; tested in HEK293 cells; also: % is scaled to controls: 0 for no effect and ±100 for the full control effect; nearly all actives have a fitted effect of over 50% in size; luciferase read-out
# RE007 growth inh: qHTS Assay for Inhibitors of the HIV-1 protein Vpr; S. pombe RE007 Vpr strain, BacTiter-Glo ATP luminescence, 24 h; control for the full effect not named in the record; Potency, µM (titrated, usually from 92.2 µM), without a hit: at the top dose activity change, negative = less growth; AID 651644, 2012; 360,000 compounds, 0.21% hits; active = well fitted falling curve with a large enough effect; inconclusive = small, poorly fitted or top-dose-only effect; inactive = no such curve, though single readings can be large or run the other way;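 also: % is scaled to controls: 0 for no effect and ±100 for the full control effect; nearly all actives have a fitted effect of over 50% in size; the assay follows cell death caused by Vpr and the record does not say whether a fall means rescue or toxicity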
#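 Fission yeast RE007 carrying one integrated HIV-1 vpr copy, seeded at OD 0.01 in PMG+AL medium with 23 nL pinned compound. Grown 24 h at 30 degrees; viability read by BacTiter-Glo luminescence after 5 min.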
# 2A StopGo: High Throughput Screening for Foot and Mouth Disease Virus Antivirals; human cells with a luciferase reporter of 2A StopGo recoding; control for the full effect not named in the record; 410,000 compounds, 1.2% hits; Potency, µM (doses to about 57.9 µM), for the others: at the top dose signal change, negative = less light; active = well fitted falling curve with a large enough effect; inconclusive = small, poorly fitted or top-dose-only effect; inactive = no such curve, though single readings can be large or run the other way; tested in HEK293T cells; also: % is scaled to controls: 0 for no effect and ±100 for the full control effect; nearly all actives have a fitted effect of over 45% in size; luciferase light after 4 h
# The depositor's hits bear a star; u = inconclusive; x = not tested or not shown; [ ] = dose if it differs, or a comment. Unless noted, calls follow the shape of the dose curve; as a rule, active means well fitted rising curve with a large enough effect; inconclusive means small, poorly fitted or top-dose-only effect; inactive means no such curve, though single readings can be large or run the other way. Potency is read from the fitted curve at half-maximal effect.
SMILES,Marburg entry inh,NS1 function inh,SARS PLpro yeast,Cruzain noTriton,Cruzain Triton,Lassa entry inh,RE007 growth inh,2A StopGo
CC(=O)Nc1ccc(CN2CCN(CCc3ccccc3)C(CCO)C2)cc1 (stereo not drawn),-15.1%[46.1 µM],-2.0%,-1.6%,x,x,4.5%[46.1 µM],7.0%,-15.3%
O=C(/C=C/c1cccs1)Nc1ccc(Br)cn1,u,0.5%,-18.3%,-5.2%,-1.9%,u,1.9%,41.0%[activator]
CCN(CC)CCN(Cc1cc2cc(C)ccc2[nH]c1=O)C(=S)NCc1ccco1,u,23.9%,23.8%,1.1%,-13.4%,-0.7%,9.9%,-22.2%
O=C(N=Nc1c(O)n(Cc2ccccc2)c2ccccc12)c1cc2ccccc2cc1O,u,7.1%,3.4%,7.94µM*,-7.9%,16.8%,4.0%,45.0%[activator]
COc1ccc(N(C)C(=O)C2CCCN2S(=O)(=O)c2cccc3nsnc23)c(OC)c1 (stereo not drawn),x,1.6%,-2.5%,x,x,x,14.6%,8.5%
O=C(/C=C/c1ccncc1)c1ccc(NC(=O)c2ccccc2F)cc1,u,-23.7%,0.3%,u,u,u,-15.0%,u
COc1ccc(Cn2nnnc2C(c2cc3cc(C)cc(C)c3[nH]c2=O)N2CCOCC2)cc1 (stereo not drawn),1.6%,-26.3%,-2.9%,14.1%,-1.7%,28.4%[14.3 µM],12.8%,0.1%
COC(=O)c1ccc(CN(Cc2ccc(OC)c(OC)c2)S(=O)(=O)c2cc(C(=O)Nc3cccc(C)c3)ccc2F)cc1,x,x,x,2.5%,1.1%,4.6%[46.1 µM],x,17.2%
Cc1nnc2c(N3CCN(c4ccccc4)CC3)nc3ccc(C(=O)c4ccccc4)cc3n12,16.0%[46.1 µM],x,x,6.5%,-1.5%,3.0%[46.1 µM],x,-15.2%
CCCSc1nnc(NC(=O)Cc2coc3cc(C)ccc23)s1,6.4%[46.1 µM],x,x,u,-2.0%,-6.5%[46.1 µM],x,-4.3%
CCOC(=O)c1cnc(N2CCN(c3cccc(C)c3C)CC2)c2ccccc12,x,x,x,-8.4%,1.5%,u,x,-15.0%
CCCCn1c(N)c(N(CCC(C)C)C(=O)c2ccc3c(c2)OCCO3)c(=O)[nH]c1=O,-14.3%,x,3.2%,x,x,u,-20.0%,6.1%
O=C1C=CC(=Nc2ccc3c(c2)C(=O)c2ccccc2-3)O1,16.5%[46.1 µM],x,x,x,x,-0.4%[46.1 µM],u,5.9%
Cc1ccc(NC(=O)CSc2nnc(-c3ccncc3)n2N)cc1C,4.4%,-0.9%,-5.0%,u,-0.2%,0.3%,7.6%,11.3%
COc1ccc(C(=O)N2CCC(C(=O)Nc3ccc(OC)c(OC)c3)CC2)cc1,3.6%,-5.7%,6.9%,3.1%,2.0%,-0.9%,-3.4%,-26.1%
O=C(NCCOc1ccccc1)c1n[nH]c(=O)c2ccccc12,12.1%,-6.4%,-3.3%,8.8%,0.7%,17.8%,-1.0%,32.8%[activator]
Cc1nc2ccccc2c(=O)n1/N=C/c1cccs1,1.4%[46.1 µM],x,-0.1%,x,x,5.8%[46.1 µM],23.2%,36.1%[activator]
COc1ccc(NC(=O)c2c(C(F)(F)F)nn(C)c2SCc2ccccc2Cl)cc1,8.9%,5.2%,-14.1%,-4.9%,-3.8%,13.8%,-7.7%[3.69 µM],-14.0%
O=C(NCCc1ccc(Cl)cc1)c1ccc2ccccc2n1,-1.7%[46.1 µM],-16.9%,-1.3%,x,x,-5.3%,-2.2%,6.9%
COc1ccc2cc(CCNC(=O)c3ccc(S(=O)(=O)N4CCOCC4)cc3)c(=O)[nH]c2c1,25.3%,-19.2%,0.8%,x,x,u,-11.5%,-22.9%
O=C(Cn1ncc2c3ccccc3n(Cc3cccc(Cl)c3)c2c1=O)NCc1ccccn1,x,5.7%,-2.0%,x,x,x,11.9%,-12.1%
Cn1c(CNC(=O)c2ccccc2F)nnc1SCC(=O)NCc1ccccc1,4.9%,-0.6%,0.7%,x,x,-3.6%,-10.3%,-0.7%
c1ccc(-c2nnc(CSc3nnc(-c4ccncc4)n3Cc3ccco3)o2)cc1,3.8%,-4.3%,19.8%,-9.4%,2.9%,-1.2%,6.6%,u
COc1cccc(CN(C)C(c2ccccc2)c2ccccc2)c1OC,u,-10.5%,-18.0%,x,x,3.2%[46.1 µM],-9.2%,-2.8%
CC(=O)Nc1c(C)nn(-c2ccccc2)c1N1CCC(C(=O)Nc2ccc(Cl)cc2C)CC1,x,x,x,u,1.5%,8.4%[46.1 µM],x,4.2%
CC(C)(C)c1ccc(OCC(=O)Nc2ccc(C(=O)OC3CCCCC3)cc2)cc1,x,x,x,6.7%,-1.3%,13.7%[46.1 µM],x,-18.9%
COc1ccc(-c2nn(-c3ccccc3)cc2C2NC(=O)NC(C)=C2C(=O)OC(C)C)cc1OC (stereo not drawn),1.2%[46.1 µM],x,x,23.8%,-6.1%,u,x,-2.5%
Cc1cccc(N2CCN(C(=O)c3c(Cl)cnn3C)CC2)c1C,u,-30.0%,-5.3%,x,x,11.2µM*,8.9%,u
CSc1nc(C)cc(Nc2cccc(C(=O)O)c2)n1,u,x,x,-6.6%,-4.7%,27.9%[46.1 µM],x,0.0%
O=C(c1cc2ccccc2oc1=O)N(Cc1ccc2c(c1)OCO2)Cc1ccco1,5.9%,-21.4%,-4.8%,-10.8%,-4.5%,4.7%,-14.1%,42.2%[activator]
CCc1nc(N)nc2c1C(=O)CC(C)(C)C2,2.4%,-9.3%,7.6%,-0.8%,-0.1%,2.2%,-1.2%,-0.1%
CCn1c(C)nc2cc(C(=O)NNS(=O)(=O)c3c(C)c(C)cc(C)c3C)ccc21,-20.2%,-5.0%,0.7%,-0.2%,6.1%,22.2%,-2.3%,16.0%
COc1ccc(-c2cc3nc(C)c(CCC(=O)N4CCN(c5cc(C)ccc5C)CC4)c(C)n3n2)c(OC)c1,-1.5%[46.1 µM],x,x,0.9%,0.6%,12.7%[46.1 µM],x,28.2µM*
N#Cc1ccc(Oc2ccc(C(N)=O)cc2)cc1C#N,20.5%,-6.1%,5.8%,1.1%,-2.7%,-12.7%,20.4%,-0.6%
C/C=C(/C)C(=O)Nc1cccc(C2=NOC3(C2)C[C@@H](C(N)=O)N(C(=O)[C@H]2CCC(=O)N2)C3)c1 (stereo partly drawn),x,2.1%,-0.5%,x,x,x,27.3%,-10.1%
Cc1cc(=O)oc2cc(OCC(=O)OC(C)C(=O)NC3CCCC3)ccc12 (stereo not drawn),12.8%,x,-1.3%,x,x,2.1%,0.7%,-20.6%
O=C(Nc1ccccc1Br)C1CCCN1S(=O)(=O)c1cccc2nsnc12 (stereo not drawn),x,3.4%,-5.5%,x,x,x,-0.3%,-16.6%
NC(=O)C1CCN(C(=O)CSc2nc(O)cc(=O)[nH]2)CC1,6.2%[46.1 µM],12.7%,2.3%,x,x,12.6%[46.1 µM],-3.6%,-11.5%
Cc1ccccc1OCC(=O)OCC(=O)c1ccc(OCc2ccccc2)cc1,u,-1.5%,12.3%,u,-5.0%,u,3.3%,48.8%[activator]
CS(=O)(=O)N1CCC(C(=O)NCc2ccco2)CC1,-0.7%,0.5%[9.22 µM],-0.8%,-3.6%,-1.7%,5.1%,-14.7%,x
COc1ccc(N(CC(=O)NC2CCCCC2)C(=O)c2ccc(C)s2)c(OC)c1,-23.8%[46.1 µM],-1.1%,-1.2%,x,x,u,-1.4%,-23.0%
COc1ccc(C(=O)Nc2nnc(S(=O)(=O)N(C)c3ccc(Cl)cc3)s2)cc1OC,x,x,x,u,-8.6%,0.4%[46.1 µM],x,4.2%
Cc1cccc(C2CC(=O)Oc3c2c(=O)n(C)c2ccccc32)c1 (stereo not drawn),-2.7%[46.1 µM],x,x,-4.5%,-3.6%,18.9%[46.1 µM],x,2.3%
CCOC(=O)/C=C/C(=O)OCC(=O)Nc1ccc(OC)c(Cl)c1,-9.6%,-50.5%,-25.6%,15.8µM*,12.6µM*,u,-3.1%,-11.0%
COc1ccc(C(=O)N[C@H](C(=O)Nc2nc3c(s2)CCCC3)C(C)C)cc1,2.2%,-5.6%,18.8%,-12.5%,-10.5%,u,-10.5%,21.9%
O=C(Nc1nc2ccccc2[nH]1)C1CC1,-18.1%,x,5.2%,x,x,22.5%,8.7%,67.0%[activator]
COc1ccc(N2CCN(C(=O)CCS(=O)(=O)c3cc(Br)cc4c3N(C(=O)C3CC3)CC4)CC2)cc1,8.9%[46.1 µM],x,x,-2.0%,-0.8%,1.3%[46.1 µM],x,12.4%

# Part of the list above, with two lines to a compound:
# Values run as follows: Marburg entry inh	NS1 function inh	SARS PLpro yeast	Cruzain noTriton	Cruzain Triton	Lassa entry inh	RE007 growth inh	2A StopGo
O=C(Nc1nc2ccccc2[nH]1)C1CC1
  -18.1%	x	5.2%	x	x	22.5%	8.7%	67.0%[activator]
COc1ccc(C(=O)Nc2nnc(S(=O)(=O)N(C)c3ccc(Cl)cc3)s2)cc1OC
  x	x	x	u	-8.6%	0.4%[46.1 µM]	x	4.2%
CCOC(=O)/C=C/C(=O)OCC(=O)Nc1ccc(OC)c(Cl)c1
  -9.6%	-50.5%	-25.6%	15.8µM*	12.6µM*	u	-3.1%	-11.0%
Cc1cccc(C2CC(=O)Oc3c2c(=O)n(C)c2ccccc32)c1 (stereo not drawn)
  -2.7%[46.1 µM]	x	x	-4.5%	-3.6%	18.9%[46.1 µM]	x	2.3%
COc1ccc(C(=O)N[C@H](C(=O)Nc2nc3c(s2)CCCC3)C(C)C)cc1
  2.2%	-5.6%	18.8%	-12.5%	-10.5%	u	-10.5%	21.9%
